Calb biofilm kill: mixture kills Candida albicans biofilm cells. C. albicans biofilm persisters + clotrimazole, fluorescence viability; primary screen in compound mixtures of four per well. inhibition, % at 7.6 µM. 120,000 tested, 0.02% active;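 active means inhibition above 30.3% in the primary screen of four-compound pools, then above 30% when the compound was retested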;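 further: compounds exposed to preformed 24 h biofilms for 48 h; the number belongs to the whole pool; some results filed as inactive read as strong as hits; inactives centre near 12; 0% = biofilm with clotrimazole alone and 100% = kill control; retested singly at about 60 µM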
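Assay system: C. albicans biofilms / Medium: RPMI/MOPS medium, pH 7.0 / Schedule: biofilm formation 24 h, compound exposure 48 h, 37 °C / Measured by: Alamar Blue fluorescence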
* hit, by the source's call.

mol | Calb biofilm kill
O=C(COC(=O)[C@@H]1CC(O)CN1S(=O)(=O)c1ccccc1[N+](=O)[O-])c1ccccc1 (stereo partly drawn) | 15
O=C(COc1ccc(Br)cc1)N1CCc2ccccc2C1 | 14
CC(=O)CSc1nnc(Cc2ccc3c(c2)OCO3)o1 | 9
N/C(=N\OC(=O)C(c1ccccc1)c1ccccc1)c1ccncc1 | 5
Cc1ccc(S(=O)(=O)Nc2cccc3c2CCCC3)cc1 | 10
OCC1CCCN(c2nc(CN3CCCCC3)nc3scc(-c4ccccc4)c23)C1 (stereo not drawn) | 20
O=[N+]([O-])c1ccc(NCc2ccccn2)nc1 | 1
O=C(O)c1ccccc1-c1ccccc1C(=O)NNc1ccccc1 | -4
CCOc1ccc(N(C(=O)c2cnsn2)C(C(=O)NC2CCCCC2)c2ccncc2)cc1 (stereo not drawn) | 17
CCOC(=O)/C(=N/Nc1ccccc1)Sc1nnnn1-c1ccc(C)cc1 | 22
COc1cccc(/C=C/C(=O)NCc2cn3cc(Cl)ccc3n2)c1OC | 29
Cc1cc(-c2n[nH]c(=S)n2/N=C/c2cc([N+](=O)[O-])ccc2Cl)n[nH]1 | 7
O=C(COC(=O)/C=C/c1ccccc1)Nc1cc(C(F)(F)F)ccc1N1CCOCC1 | 16
CC1=NNC(=O)/C1=C\c1cn(-c2ccccc2)nc1-c1cccs1 | 16
CCc1cccc(C)c1NC(=O)CO/N=C(\C)c1cc2ccccc2o1 | 12

Next section:
mol | Calb biofilm kill
CN1CCN(NC(=O)CN2C(=O)/C(=C/c3ccccc3F)SC2=S)CC1 | 11
Cc1cc(-c2csc(NC(=O)c3ccc(S(=O)(=O)N(C)C)cc3)n2)c(C)n1-c1ccccc1 | 13
Brc1ccc(CSc2ccc3nnc(-c4ccccn4)n3n2)cc1 | 15
Cc1ccc(NC(=O)CN(C)CC(=O)Nc2ccc(N3CCOCC3)cc2)c([N+](=O)[O-])c1 | 18
Cc1ccc(C)c(NC(=O)CCC(=O)NNC(=O)c2cccs2)c1 | 15
Cc1ccc(N2CC(C(=O)NCc3cccs3)CC2=O)cc1C (stereo not drawn) | 13
COc1ccccc1N1C(=O)CC(Sc2ccccc2N)C1=O (stereo not drawn) | 24
Cc1ccc(OCC(=O)c2cc(C)n(Cc3ccco3)c2C)c([N+](=O)[O-])n1 | 10
COC(=O)[C@@H]1C[C@H]2CC[C@H](O)C[C@H]2N1Cc1ccc(C(C)(C)C)cc1 | 13
c1ccc(-c2noc(CC3CCCCC3)n2)cc1 | 18
COc1ccc(N=CC2=C(O)CC(C)(C)CC2=O)cc1OC | 19
COc1ccc(NC(=O)C2CC(=O)n3c(nc4ccccc43)N2)cc1 (stereo not drawn) | 16
O=c1[nH]c(NNC(=S)NCc2ccccc2)nc2c1C1(CCCCC1)Cc1ccccc1-2 | 13
CCc1cc2c(N[C@@H](Cc3c[nH]c4ccccc34)C(=O)O)ncnc2s1 | 28
CCN(CC)C(=O)CSc1nnc(COc2ccccc2)n1N | 13

Next section.
mol | Calb biofilm kill
Cc1nn(-c2ccccc2)c2sc(C(=O)OCn3nnc4ccccc4c3=O)cc12 | 17
Cc1ccc(/C=C2\SC(N)=NC2=O)s1 | 17
CCOC(=O)/C(=C\c1ccc(OC(F)F)cc1)C1=Nn2c(nnc2-c2ccc(Cl)cc2)SC1 | 10
C=CCNC(=S)NNC(=O)C(CC(C)C)CC(C)O (stereo not drawn) | 29
CN(C(=S)Nc1ccc(SC(F)F)cc1)c1ccc(O)cc1 | 11
Cc1ccc(-c2csc(N(CCCN(C)C)C(=O)c3ccco3)n2)cc1 | 33
O=C(COC(=O)c1ccc(F)cc1)Nc1ccccc1N1CCOCC1 | 16
COc1cc(NC(=O)c2cccc(C)c2)c(Cl)cc1[N+](=O)[O-] | 20
COc1ccc(Cl)cc1-c1nc(SCC(=O)NCCN2C(=O)CSC2=O)n[nH]1 | 5
O=C(O)c1ccccc1-c1ccccc1C(=O)Nc1ccc2c(c1)[nH]c(=O)c1ccccc12 | 19
Cc1c(/C=N/NC(=O)c2ccccc2O)c2ccccn2c1C(=O)c1ccc(F)cc1 | 22
Cc1ccc(S(=O)(=O)NCC(=O)OCC(=O)Nc2cccc(S(=O)(=O)NC3=NCCCCC3)c2)cc1C | 18
CC(C)(C)c1ccc(C(=O)N2CCC(=O)N(C(CO)Cc3ccccc3)CC2)cc1 (stereo not drawn) | 14
CCC1CCCCN1C(=O)COc1cccc2c1CCN(C)C2=O (stereo not drawn) | 12
CCc1ccc(NC(=O)CSc2ccc(-c3ccco3)nn2)cc1 | 4

Following part.
mol | Calb biofilm kill
O=C(c1cc2c(=O)n3ccccc3nc2s1)N1CCN(Cc2ccc3c(c2)OCO3)CC1 | 18
CCCNCc1cc(Br)ccc1OCC(=O)NCCc1ccccc1 | 21
CC(Nc1ccc(Cl)cc1)c1cc(Cl)ccc1O (stereo not drawn) | 8
COc1ccc(NC(=O)c2c(Cl)cnn2C)c(C)c1 | 15
O=C(COc1cccc2cccnc12)N/N=C1\SCC(=O)N1CCc1ccccc1 | -2
O=C(CSc1nncn1-c1cccnc1)N1CCOCC1 | 14
COc1ccc(-c2nnc(SCC(=O)Nc3cc(S(=O)(=O)N4CCCCC4)ccc3Cl)n2N)cc1 | -6
O=C(O)c1ccc(NC2=C(n3nnc4ccccc43)C(=O)c3ccccc3C2=O)cc1 | 24
COc1ccc(CCN=C(N)NS(=O)(=O)c2cccs2)cc1OC | 12
CCn1cc(C(=O)NCc2ccco2)c(=O)c2cc(S(=O)(=O)N3CCCC3)ccc21 | 11
CCCc1[nH]n(-c2ccc([N+](=O)[O-])cc2)c(=O)c1C=NCCCn1ccnc1 | 25
Cc1cc(C)cc(NC(=O)COC(=O)c2cc(C)oc2C)c1 | 6
CC1=CC(=C(C#N)c2nc3ccccc3s2)C=C(C)N1c1ccc(F)cc1 | 19
O=c1oc2cc(O)c(Cl)cc2c2ccccc12 | 7
N/C(=N\NC(=O)c1ccc(Cl)cc1)c1cnccn1 | -7

(more compounds)
mol | Calb biofilm kill
O=[N+]([O-])c1ccc(/C=C/C2=NN(c3ccccc3)C(c3ccco3)C2)o1 (stereo not drawn) | 7
NC(=O)[C@@H]1CCCN1Cc1nc(Cc2cccc(C(F)(F)F)c2)no1 | 11
O=C(Nc1nnc(-c2ccccc2)o1)Nc1ccc(F)cc1F | 4
NCCCn1cnc2ccccc21 | 17
O=C(CC1C(=O)N(c2ccccc2)C(=S)N1c1ccccc1)c1ccc(Br)cc1 (stereo not drawn) | 24
CCCCCCN(C(=O)CCl)c1ccccc1 | 20
Cc1ccc(S(=O)(=O)N(CC(=O)N2CCCCC2)c2cccc(C)c2)cc1 | 11
Cc1ccc(NC(=O)CSc2nc(=O)cc(N)n2CCc2ccccc2)cc1 | 16
Cc1cc(NC(=O)CCCn2cnc([N+](=O)[O-])n2)no1 | 17
COc1ccc(NC(=O)Nc2ccc(Cc3ccncc3)cc2)c(OC)c1 | 13
CCOC(=O)Nc1c(Cl)n(C)c(=O)n(C)c1=O | 14
COc1ccccc1CN1CCNC(=O)C1CC(=O)NCc1csc(C)n1 (stereo not drawn) | 10
CCc1ccc(NC(=O)CSc2nnc(-c3n[nH]c4ccccc34)n2-c2ccccc2)cc1 | 10
CCc1ccccc1NC(=O)Cn1nc(C(F)(F)F)c2c1CCC2 | 21
CCOc1cc(NC(=S)NCCOC)c(OCC)cc1NC(=O)c1ccco1 | 9

Continued.
mol | Calb biofilm kill
COc1cccc(/C=N/NC(=O)C(C)Sc2ccccc2)c1 (stereo not drawn) | 16
O=c1c2cccnc2n(-c2ccccc2)n1Cc1ccc(Cl)cc1 | 9
O=C(COC(=O)c1cc2c(s1)CCCC2)NCc1ccccc1Cl | 19
Cc1nc(-c2ccc(Cl)cc2)sc1C(=O)NNC(=O)C(C)C | 6
CC#CCCc1nc2ccccc2c(=O)n1N | 12
COc1ccc(-c2nnc3ccc(SCc4ccccc4)nn23)cc1 | 15
CCOc1ccc(Oc2c(/C=N/NC(=O)COc3ccccc3OC)c(C)nn2-c2ccccc2)cc1 | 7
COCCCN(C(=O)Cc1ccc(Cl)c(Cl)c1)c1c(N)n(Cc2ccccc2)c(=O)[nH]c1=O | -23
O=C(Cc1ccccc1)N/N=C/c1ccc2cccc(O)c2n1 | 2
COc1cccc(/C=C/C(=O)OCC(=O)NCC2CCCO2)c1 (stereo not drawn) | 12
CCCOc1ccc(CCc2n[nH]c(=S)n2-c2ccccc2)cc1 | 13
Cc1cc(C)c2c(N)c(-c3nnc(SCc4ccc(Cl)cc4)n3C)sc2n1 | 10
CC(C)NC(=S)N1CCN(Cc2ccc3c(c2)OCO3)CC1 | -2
COc1ccc(NS(=O)(=O)c2ccc(N3CCOCC3)c(NC(=O)C(C)C)c2)cc1 | 8
Cc1sc2ncnc(N3CCC(C(=O)Oc4cccc(Cl)c4Cl)CC3)c2c1C | 14

5 entries from above, ordered by number of heavy atoms, falling.
mol | Calb biofilm kill
COc1ccc(NS(=O)(=O)c2ccc(N3CCOCC3)c(NC(=O)C(C)C)c2)cc1 | 8
O=C(COC(=O)c1cc2c(s1)CCCC2)NCc1ccccc1Cl | 19
COc1cccc(/C=C/C(=O)OCC(=O)NCC2CCCO2)c1 (stereo not drawn) | 12
CC(C)NC(=S)N1CCN(Cc2ccc3c(c2)OCO3)CC1 | -2
CC#CCCc1nc2ccccc2c(=O)n1N | 12

Continued:
mol | Calb biofilm kill
Cc1sc2nc(N3CCOCC3)[nH]c(=O)c2c1-c1ccccc1 | 14
CCc1cccc(CC)c1NC(=O)c1ccc(-n2cncn2)nc1 | 13
CCCCn1c(SCc2nc3ccccc3s2)nc2ccccc2c1=O | 18
COc1ccc(/C=C/C(=O)OCC(=O)Nc2ccc(C)cc2)cc1S(=O)(=O)N1CCOCC1 | 12
Cn1c(=O)c2c(c3ccccc31)OC(C)(C)CC2 | 2
CCOC(=O)CSc1nnc(CNC(=O)c2ccc(S(=O)(=O)N(C)C)cc2)n1C | 11
O=S1(=O)N=C2CCCCCN2C(c2ccc(Cl)cc2)N1 (stereo not drawn) | 6
COc1cc(NC(=S)N2CCOCC2)c(OC)cc1Cl | 17
COC(=O)C1CCN(C(=O)Cc2ccccc2OC)CC1 | 21
COc1cccc(N2CCN(Cc3nnnn3C3CCCCC3)CC2)c1 | -3
CS(=O)c1ccccc1-c1nc(-c2cccc(Cl)c2)no1 (stereo not drawn) | 12
COc1cc(/C=N/NC(=O)c2cc(C)n(-c3ccc(F)cc3)c2C)cc(OC)c1O | 20
CCOC(=O)C(=CNNc1ccccc1)C(=O)OCC | 16
COCCNC(=O)CCCn1c(=O)c2cc(OC)c(OC)cc2n(CC(=O)Nc2ccc(C)c(F)c2)c1=O | 15
Cc1onc(-c2ccccc2)c1C(=O)NCC(O)c1ccccc1 (stereo not drawn) | 16

Continued.
mol | Calb biofilm kill
Nc1ccc(C(=O)Nc2nccs2)cc1 | 9
CN1C(=O)/C(=C\C(=O)c2cccs2)c2ccccc21 | 32
Cc1cc2cc(CNC(=O)C(C)Oc3ccccc3)ccc2n1C (stereo not drawn) | 7
CCNC(=O)NC(=O)C(C)Sc1ncc(C(F)(F)F)cc1Cl (stereo not drawn) | 16
CC(C)CN(CC(C)C)S(=O)(=O)N1CCC(C(=O)N2CCc3ccccc3C2)CC1 | 20
COc1ccc(Nc2nc3[nH]c(=O)cc(O)c3s2)cc1 | 12
CN(Cc1ccccc1)C(=O)c1ccccc1-c1ccccc1 | 10
Cc1ccc(-c2n[nH]c3c2C(c2ccccc2)N(c2ccc(C(=O)O)cc2)C3=O)cc1 (stereo not drawn) | 16
NC(=O)NC(=O)COC(=O)[C@H](Cc1ccccc1)NC(=O)c1cccs1 | 9
COc1ccc(C2CC(c3ccccc3)=NN2c2ccc(N)cc2)cc1 (stereo not drawn) | 16
COc1cccc(C(=O)NCC(=O)N/N=C/c2ccc(OC(=O)c3cccs3)c(OC)c2)c1 | -3
O=S(=O)(Nc1ccc(-c2nnc(SCc3ccc(Cl)cc3)o2)cc1)c1ccccc1 | 18
CC(C)CC(=O)NC(=S)Nc1ccc(S(=O)(=O)N2CCCC2)cc1 | 11
CNC(=O)C1=C(C)Nc2nc3ccccc3n2C1c1ccc(F)cc1 (stereo not drawn) | 27
COc1ccc(C(=O)CCNc2cccc(Cl)c2)cc1 | 18

Continued:
mol | Calb biofilm kill
CC(=O)Nc1ccc(S(=O)(=O)NC2(C(F)(F)F)C(=O)NC(C)=C2C#N)cc1 (stereo not drawn) | 25
CCNc1ccc(S(=O)(=O)N(C)C)cc1NCC(=O)Nc1ccccc1Br | 16
O=c1[nH]c(/C=C/c2cccc3ccccc23)nc2ccccc12 | 4
O=C(CCc1nnc(C2CCCCC2)o1)NCc1cccc(-n2cccn2)c1 | 16
CCN1CNC(=S)N(Cc2ccccc2)C1 | 1
Cc1cc(NC(=O)Cn2cc([N+](=O)[O-])cn2)no1 | 0
O=C(Nc1ccccc1)Nc1ccccc1Br | 7
COC(=O)CC1C(=O)NCCN1C(=S)Nc1ccc(F)cc1 (stereo not drawn) | 14
Cc1ccc(C(=O)OCC(=O)c2c[nH]c3ccccc23)cc1NC(=O)c1ccco1 | 1
CN1CCN(C=Nc2nc3ccccc3nc2N2CCCC2)CC1 | 16
CCCC(=O)N1CCN(c2ccc(NC(=O)c3ccc([N+](=O)[O-])o3)cc2)CC1 | -7

Screening results (PubChem BioAssay)

A portion of the library; the hit share may differ from the screen's.
